Biofilm kill mix: mixtures killing C. albicans biofilm; C. albicans biofilm persisters + clotrimazole, fluorescence viability; primary screen in compound mixtures of four per well; inhibition, % at 7.6 µM; 120,000 tested, 0.02% active; AID 1242;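 active means inhibition above 30.3% in the primary screen of four-compound pools, then above 30% when the compound was retested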;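 further: compounds exposed to preformed 24 h biofilms for 48 h; the number belongs to the whole pool; some results filed as inactive read as strong as hits; inactives centre near 12; 0% = biofilm with clotrimazole alone and 100% = kill control; retested singly at about 60 µM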
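Incubation: 24 h biofilm formation, then 48 h compound exposure, 37 °C | Material: C. albicans biofilms | Buffer or medium: RPMI/MOPS medium, pH 7.0 | Measured by: 2-h Alamar Blue fluorescence, 535/590 nm excitation/emission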
An asterisk follows results filed as active. A portion of the library; count on the stated rates, not on these rows.

canonical_smiles | Biofilm kill mix
CN(c1ccccn1)c1ncnc2[nH]ncc12 | 5
Cc1ccc(S(=O)(=O)N(C)C)cc1NC(=O)[C@H](Cc1ccccc1)N1C(=O)c2ccccc2C1=O | -1
CC(C)c1ccc(NC(=O)COc2nncc3ccccc23)cc1 | 16
CN(c1ccccc1C(=O)Nc1ccc(S(=O)(=O)N2CCOCC2)cc1)S(C)(=O)=O | 21
COCCNC(=O)/C(C#N)=C\c1ccc(CNC(=O)C(=O)Nc2ccc(C)c(C)c2)o1 | 15
CC1(C)OC(=O)C(=Cc2ccc(-c3ccc(S(N)(=O)=O)cc3)o2)C(=O)O1 | 20
O=C1C=CC(=O)N1c1ccc(I)cc1Cl | 3
Fc1ccc(OCc2nc(-c3cccs3)no2)cc1 | 9
N=c1c(C(=O)NCc2ccco2)cc2c(=O)n3ccccc3nc2n1CCc1ccccc1 | 10
O=C1OC(/C=C/c2ccccc2)=NC/1=C/C=C/c1ccccc1 | 5
CCOCCCn1c(SCC(=O)/C(C#N)=C(\C)N)nc2ccccc2c1=O | 6
C=CCN1C(=O)/C(=C/C(=O)OC)S/C1=N\NC(=O)c1ccccc1 | 24
CCOc1ccc(-c2nc(S(=O)(=O)c3ccccc3)c(N3CCOCC3)o2)cc1 | 5
Cc1ccc(S(=O)(=O)N2CCN(C(=O)COC(=O)c3c(C)noc3C)CC2)c(C)c1 | 21
CCOc1ccc(NC(=S)NC(=O)c2c(Br)cnn2C)c([N+](=O)[O-])c1 | 12
Cc1cccc(N=C2NC(=O)/C(=C/c3cn(C)c4ccccc34)S2)c1 | 2
CSc1nc(N2CCN(c3ccccc3)CC2)cc(N2CCN(c3ccccc3)CC2)n1 | 15
CCOC(=O)C1CCCN(C(=O)c2ccc3c(=O)n(CCOC)c(=S)[nH]c3c2)C1 (centres undefined) | 18
O=S(=O)(c1ccccc1)c1ncc(C(F)(F)F)cc1Cl | 16
C=CCNC(=O)/C(=C\C=C\c1ccccc1)NC(=O)c1ccccc1Cl | 12
CCOC(=O)c1c(NC(=O)C2CC2)sc2c1CC(C)(C)OC2 | 21
CC(=O)c1cccc(NC(=O)c2ccc(-c3ccccc3[N+](=O)[O-])o2)c1 | 15
Cc1ccsc1C(=O)NNC(=O)C1C2C=CC(C2)C1C(=O)O (centres undefined) | 9
O=C(Cn1cnc2scc(-c3ccc(Br)cc3)c2c1=O)N1CCOCC1 | 13
COC(=O)CSc1nccc(C)n1 | 11
NC(=O)C1CCN(c2ccc(S(=O)(=O)N3CCC(Cc4ccccc4)CC3)cn2)CC1 | 16
Cn1cc(CN2CCCCC2CO)c(-c2ccc(Oc3ccccc3)cc2)n1 (centres undefined) | 13
C=CCn1c(SCc2ccc(F)cc2)nnc1-c1sc2nc(C)cc(C)c2c1N | 14
CCNC(=S)N/N=C/c1ccc(OCc2ccc(C(=O)OC)cc2)cc1 | 2
CCC(C)[C@H](NC(=O)N1CCC(C)CC1)C(=O)OC (some centres undefined) | 16
c1cc2c(cc1C1=NNC(=NC3CC3)SC1)OCCO2 | 5
CC(CCc1ccccc1)NC(=O)CSc1cccc[n+]1[O-] (centres undefined) | 15
CC(C)c1ccc(Nc2c([N+](=O)[O-])c(=O)n(C)c3ccccc23)cc1 | 11
CN(c1ccccc1)S(=O)(=O)c1ccc(Cl)c(C(=O)OCC(=O)NC2CCS(=O)(=O)C2)c1 (centres undefined) | 13
O=C(NCc1ccco1)c1ccc(Cl)s1 | 6
O=C(NCc1ccc2c(c1)OCO2)c1sccc1Br | 16
O=C(NC(=O)c1ccccc1F)Nc1nc(-c2cccs2)cc(C(F)(F)F)n1 | 1
OC1(C#CCCN2CCCCC2)c2ccccc2-c2ccccc21 | 11
Nn1c(SCc2ccccc2F)nnc1-c1ccccn1 | 21
CC(=O)N1N=C(c2ccc(Br)cc2)OC12CCCC2 | 19
CCOc1cccc2sc(=NC(=O)c3ccco3)n(CC(=O)OC)c12 | 20
O=C(C1=C(O)C(=O)N(Cc2ccco2)C1c1cccs1)c1cccs1 (centres undefined) | 13
Cc1ccc(CNC(=O)C(=O)NCC2OCCN2S(=O)(=O)c2cccs2)cc1 (centres undefined) | 20
O=C(O)c1ccn(COc2ccc(Br)cc2)n1 | 7
Cc1ccsc1/C=C1/SC(N2CCOCC2)=NC1=O | 3
CC(Nc1cccc(F)c1)C(=O)Nc1ccc(S(N)(=O)=O)cc1 (centres undefined) | -10
Cn1c(NC(=O)c2ccc(S(=O)(=O)N3CCCCC3)cc2)cc(=O)n(C)c1=O | 9
COc1ccc(Nc2nc(C(=O)NCc3ccco3)cs2)cc1 | 9

Later entries:
canonical_smiles	Biofilm kill mix
CCC(C(=O)Nc1ccncc1)c1ccccc1 (centres undefined)	8
O=C1CSC(c2ccccc2Br)N1c1ccc(Cl)cn1 (centres undefined)	4
O=C(CC1SCCNC1=O)Nc1cccc([N+](=O)[O-])c1 (centres undefined)	19
Cc1cc(C)n2c(-c3ccccc3Cl)nnc2n1	10
O=C(Oc1cccc2cccnc12)c1cccc(-n2cnnn2)c1	5
CCOc1cc(C2C(C(=O)OC(C)C)=C(C)NC3=C2C(=O)CCC3)cc([N+](=O)[O-])c1O (centres undefined)	17
CC(=O)NC(Cc1c[nH]c2ccccc12)C(=O)O (centres undefined)	20
CCn1c(SCC(=O)Nc2ccccc2C)nc2nc3c(cc2c1=O)COC(C)(C)C3	13
Cc1cccc(NC2=CC(=O)CC(C)(C)C2)c1C	22
Cc1cc(CNC(=O)CC2C(=O)NCCN2Cc2ccc(-c3ccccc3)cc2)nn1C (centres undefined)	30
Cc1ccc[n+](-c2nc([O-])sc2/C=N/Nc2ccc([N+](=O)[O-])cc2)c1	19
CCOc1ccc(OCC(=O)Nc2nccs2)cc1	-5
CC1CCCCN1C(=O)CCc1nnc(Cc2c[nH]c3ccccc23)o1 (centres undefined)	-5
CCCCOC(=O)c1ccccc1N1C(=O)C2C3CCC(C3)C2C1=O (centres undefined)	11
O=C(c1ccc(CSc2ccc(Cl)cc2)cc1)N1CCOCC1	15
Cc1ccc(NC(=O)CSc2nc3[nH]ncc3c(=O)[nH]2)c(C)c1	11
O=C(CC(c1cccs1)S(=O)(=O)c1ccccc1)c1ccc(F)cc1 (centres undefined)	5
CCC1=Nc2cc(C(=O)NCC3CCCO3)ccc2Sc2ccc(Br)cc21 (centres undefined)	20
Nc1ccccc1Sc1ccc(C(=O)c2ccccc2C(=O)O)cc1[N+](=O)[O-]	15
COc1cc(O)c(C(CCN2CCOCC2)c2ccc3c(c2)OCO3)c(OC)c1 (centres undefined)	10
NC(=O)CSc1nc2c(sc3ccccc32)c(=O)n1CCCC(=O)NCC1CCCO1 (centres undefined)	14
Cn1cc(C2CC(c3ccccc3)=NN2C(=O)c2ccccc2)c2ccccc21 (centres undefined)	11
CCN(CC(=O)Nc1cc(Cl)ccc1C)c1ncnc2sc(C)c(C)c12	-10
O=C(Nc1nc(-c2ccc(F)cc2)cs1)C1CCCO1 (centres undefined)	12
Cc1ccc(C(c2c(C)n(C)n(-c3ccccc3)c2=O)c2c(C)n(C)n(-c3ccccc3)c2=O)s1	-2
O=c1[nH][nH]cc1C=Nc1cc(Cl)ccc1O	16
CCC(=O)N1N=C(c2ccc(C)o2)CC1c1ccc(Br)cc1 (centres undefined)	15
COc1ccc(N(CC(=O)N2CCN(c3ccc(F)cc3)CC2)S(=O)(=O)c2c(C)n[nH]c2C)cc1	17
CSc1cccc(CN2CCCC(CO)(Cc3cccc(Cl)c3)C2)c1 (centres undefined)	1
COCCCNCCCCSc1ccc(Cl)cc1	5
O=C(CN1CCc2ccccc21)NC(=O)NC1CCCCC1	14
COc1ccc(NS(=O)(=O)c2ccc(N3CCOCC3)c(NC(=O)c3cccc(F)c3)c2)cc1	11
Nc1cccc2c1C(=O)N(C(=O)/C=C/c1cccc(F)c1)C2=O	20
O=C(CC1C(=O)NCCN1Cc1ccc(-c2ccccc2)cc1)NC1CCC1 (centres undefined)	23
COc1ccc(S(=O)CC(=O)Nc2ccccc2Cl)cc1 (centres undefined)	9
COc1ccccc1C(=O)NCCn1cc(SCC(=O)Nc2cc(C)on2)c2ccccc21	9
Cc1ccccc1C(=O)N1CCN(c2ccc(NC(=O)c3ccccc3[N+](=O)[O-])cc2)CC1	13
Cc1cc2oc(=O)cc(CN3CCN(S(=O)(=O)c4cccs4)CC3)c2cc1C(C)C	15
CCOC(=O)CNC(=O)/C=C/c1c(Cl)cccc1Cl	-2
CC(C)OC(=O)c1cccc2c1C(=O)c1ccccc1-2	18
O=C(CCNC(=O)c1ccccc1Cl)Nc1ccc(Br)c(C(F)(F)F)c1	-12
Cn1c(=O)c2c(nc(CN3CCc4ccccc4C3)n2CCCO)n(C)c1=O	15
CSc1nc2ccc(NS(=O)(=O)c3ccc([N+](=O)[O-])cc3)cc2s1	15
COc1cc(/C(C)=N/NC(=O)Cc2c(C)[nH][nH]c2=O)ccc1O	16
Clc1cccc(Cc2ccc(Cl)nn2)c1	17
O=c1oc2ccccc2c(Nc2ccccc2)c1[N+](=O)[O-]	18
CCCn1ccc(O)c(Cc2ccc(Cl)cc2)c1=O	17
Cc1ccnc(NC(=O)CCC(=O)N(CC(=O)NC(C)(C)C)c2ccc3c(c2)OCCO3)c1	4
CCN(CC(=O)NCc1ccc(Cl)cc1)C(=O)c1ccc(S(=O)(=O)N(C)C)cc1	1
COC(=O)Nc1nnc(-c2ccc(OC)cc2)s1	20

Further compounds:
canonical_smiles	Biofilm kill mix
Cc1c2ccccc2nc2c(F)c(N(C)C)c(F)c(F)c12	17
COc1ccc(Nc2oc(COc3ccc(OC)cc3)nc2C#N)cc1	5
O=C(c1cccs1)N(c1ccc(Br)cc1)C1C=CS(=O)(=O)C1 (centres undefined)	16
CC1(C)CC(=O)C=C(NC2CCCCCCC2)C1	10
CCOC(=O)C1=C(C)N=c2s/c(=C\c3cc(OC)c(OC)c(OC)c3)c(=O)n2C1/C=C/c1ccccc1 (centres undefined)	18
Fc1cccc(Cl)c1/C=N/n1c(-c2cccnc2)n[nH]c1=S	19
CCOC(=O)c1cc(CO)cc(C(=O)OCC)c1	14
Cc1cc(C)n(-c2ccc(C(=O)OCC(=O)NCc3ccc(F)cc3)cc2)n1	12
Cc1c(-n2c(SCC(=O)NC(C)C(C)C)nc3ccccc3c2=O)c(=O)n(-c2ccccc2)n1C (centres undefined)	15
O=C1CCCN1CCC1CCCCN1Cc1nc(COc2ccccc2)no1 (centres undefined)	6
Cc1cc(C)c(C)c(S(=O)(=O)N2CCN(CC(=O)Nc3ccc([N+](=O)[O-])cc3)CC2)c1C	28
O=C(Nc1ccccc1-c1ccccc1)NC1CC2CCCC(C1)N2CCc1ccccc1 (centres undefined)	17
Cc1ccc(-c2csc(CC(N)=O)n2)cc1	14
Cc1cc(NC(=S)N(CCCN2CCN(C)CC2)Cc2ccco2)ccc1Cl	19
Cc1nn(C)c(Cl)c1CN1CCC(CO)(CC2CCCCO2)CC1 (centres undefined)	18
CCOC(=O)C1(Cc2ccccc2)CCN(Cc2ccc(COC)o2)CC1	8
CCOc1ccc(C(=O)Nc2ncccc2Cl)cc1	18
Clc1cccc(Cl)c1-c1noc(-c2ccno2)n1	18
CCCCCCCCCCCCOC(=O)C[N+](C)(C)C	15
c1cnc(N2CCN(c3cnccn3)CC2)nc1	10
Cc1ccc(S(=O)(=O)N2CCCCC2)cc1NC(=O)Cn1c(=O)cnc2ccccc21	15
Fc1ccc2nc(N3CCOCC3)sc2c1	1
CC(C)(C)C(=O)Nc1cccc(-c2cc(-c3c(Cl)cccc3Cl)no2)c1	6
COc1ccc2[nH]c3c(=O)n(CCc4ccccc4)cnc3c2c1	14
COc1ccc(C(=O)N/N=C(/C)c2ccc(N3CCCCC3)cc2)cc1	7
O=C1CCC2(CC1)NC(=O)N(c1ccccc1)N2	10
CCC1(CC)Cc2ccccc2-c2nc(NCCO)[nH]c(=O)c21	9
O=c1[nH]c(/C=C\c2cccnc2)c([N+](=O)[O-])c(=O)[nH]1	7
CCOC(=O)c1ccc(N=C2SC(C(=O)NC)CC(=O)N2CCc2ccccc2)cc1 (centres undefined)	20
CC1CCCC(C)N1NC(=S)Nc1ccc(OC(F)F)cc1 (centres undefined)	-10
O=C(/C=C/c1ccco1)NCC1COc2ccccc2O1 (centres undefined)	-1
CCN(CC)c1ccc(/C=N/NC(=O)c2cnccn2)c(O)c1	13
Cc1ccc(NS(=O)(=O)c2ccc3c(c2)NC(=O)CC(=O)N3)cc1C	11

Filtered by structure: the compounds so far containing an aryl thioether with sulfur outside any ring.
canonical_smiles	Biofilm kill mix
CCOCCCn1c(SCC(=O)/C(C#N)=C(\C)N)nc2ccccc2c1=O	6
CSc1nc(N2CCN(c3ccccc3)CC2)cc(N2CCN(c3ccccc3)CC2)n1	15
COC(=O)CSc1nccc(C)n1	11
C=CCn1c(SCc2ccc(F)cc2)nnc1-c1sc2nc(C)cc(C)c2c1N	14
CC(CCc1ccccc1)NC(=O)CSc1cccc[n+]1[O-] (centres undefined)	15
Nn1c(SCc2ccccc2F)nnc1-c1ccccn1	21
CCn1c(SCC(=O)Nc2ccccc2C)nc2nc3c(cc2c1=O)COC(C)(C)C3	13
O=C(c1ccc(CSc2ccc(Cl)cc2)cc1)N1CCOCC1	15
Cc1ccc(NC(=O)CSc2nc3[nH]ncc3c(=O)[nH]2)c(C)c1	11
Nc1ccccc1Sc1ccc(C(=O)c2ccccc2C(=O)O)cc1[N+](=O)[O-]	15
NC(=O)CSc1nc2c(sc3ccccc32)c(=O)n1CCCC(=O)NCC1CCCO1 (centres undefined)	14
CSc1cccc(CN2CCCC(CO)(Cc3cccc(Cl)c3)C2)c1 (centres undefined)	1
COCCCNCCCCSc1ccc(Cl)cc1	5
COc1ccccc1C(=O)NCCn1cc(SCC(=O)Nc2cc(C)on2)c2ccccc21	9
CSc1nc2ccc(NS(=O)(=O)c3ccc([N+](=O)[O-])cc3)cc2s1	15
Cc1c(-n2c(SCC(=O)NC(C)C(C)C)nc3ccccc3c2=O)c(=O)n(-c2ccccc2)n1C (centres undefined)	15
